# Screening data deposited in PubChem by National Center for Advancing Translational Sciences (NCATS).
# PINK1 modulator – modulators of PINK1 expression | hit rate 0.2% among 410,000 | Potency, µM (highest dose often 76.6 µM), inactives show at the highest dose activation (PINK1 increase), most hits filed as activators | PINK1 immunofluorescence, high-content cytometry, 24 h; active = well fitted activation curve with a large enough effect; inconclusive = small, poorly fitted or top-dose-only effect; inactive = flat fitted curve, though single readings scatter; cell line not stated here;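 note: potency is the fitted concentration of half-maximal effect; % of control where 0% means no effect; nearly all actives have a fitted effect of over 65% in size; a mitochondrial uncoupler was the plate control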
#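 Compound titrations (5 concentrations, 24 h) on a stable cell line; DMSO and CCCP controls. Endpoint: fixed-cell PINK1 immunofluorescence with mitochondrial, cell and nuclear markers, scanned by microplate cytometer.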
# TRPML1 ag – activates the human TRPML1 channel. hit rate 0.12% among 410,000. TRPML1-expressing cells, Ca2+ dye fluorescence, FDSS; host cell line not named in the record; reference of the full effect not given here. AID 624414. activation, % (no concentration beside the values); in the data active = activation above about 50%; inconclusive = about 30% to 50%; inactive = below about 30%; note: 0% is about no effect; the text of the record puts the active cut at 80%
# Target sequence (Q9GZU1 whole entry, looked up): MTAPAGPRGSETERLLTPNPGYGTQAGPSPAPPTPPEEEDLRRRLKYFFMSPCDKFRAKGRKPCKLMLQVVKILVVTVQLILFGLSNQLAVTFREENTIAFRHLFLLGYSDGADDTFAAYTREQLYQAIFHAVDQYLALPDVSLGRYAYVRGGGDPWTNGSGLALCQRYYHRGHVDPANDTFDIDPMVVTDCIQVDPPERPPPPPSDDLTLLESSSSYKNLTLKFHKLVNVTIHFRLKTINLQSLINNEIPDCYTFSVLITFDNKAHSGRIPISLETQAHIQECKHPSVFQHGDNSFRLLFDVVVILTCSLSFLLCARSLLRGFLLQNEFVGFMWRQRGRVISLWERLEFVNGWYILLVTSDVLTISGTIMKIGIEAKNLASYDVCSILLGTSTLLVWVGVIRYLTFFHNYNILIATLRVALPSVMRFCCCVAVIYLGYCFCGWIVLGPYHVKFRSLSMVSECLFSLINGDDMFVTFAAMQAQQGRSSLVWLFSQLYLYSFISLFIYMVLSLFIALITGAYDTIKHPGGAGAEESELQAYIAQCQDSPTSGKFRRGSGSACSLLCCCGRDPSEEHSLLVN
#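 Tet-induced TRPML1-DL cells, 1,500 per well, cultured overnight, were loaded with a no-wash Ca2+ dye for 45–90 min. Calcium fluorescence was recorded on the FDSS for 110 s after compound addition, before the EC80 agonist (4 uM 54-4) was added.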
# An asterisk follows results filed as active; ? = inconclusive; & = joins results of further samples.
Molecule | PINK1 modulator | TRPML1 ag
CC(C)Oc1ccc(-c2nc3c(C#N)c[nH]n3c2NC2CCCCC2)cc1 | 0.9% | 3.2
COc1ccc(CCNC(=O)C2CCN(Cc3nc(-c4ccc(OC)c(OC)c4)oc3C)CC2)cc1OC | 0.6% | 0.4
Cc1cc(C)nc(NC(=NCCc2c[nH]c3ccc(Cl)cc23)NC(=O)c2ccccc2C)n1 | 3.6% | 2.5
Cc1ccc(OCC(=O)Nc2ccccc2C(=O)OCc2cc(=O)n3ccsc3n2)cc1C | -2.5% | -1.2
COc1ccc(-c2nc(CSc3nnc(C)n4c3cc3oc(C)cc34)c(C)o2)cc1OC | 0.1% | -1.1
CC(=O)Nc1ccc(NC(=O)c2nc(SCc3ccccc3C)ncc2Cl)cc1 | 14.5% | 1.3
CCc1ccccc1NC(=O)Nc1nnc(N(C)Cc2ccccc2)s1 | 0.4% | 0.8
COc1ccc(N(Cc2ccccc2)C(=O)c2nc(S(C)(=O)=O)ncc2Cl)cc1 | -0.9% | 6.3
COc1ccc(-c2c3c(=O)n(C)c(=O)n(C)c3c3c(-c4ccc(C)cc4)nc4ccccc4n23)cc1 | 27.8% | -0.2
CCOc1ccccc1NC(=O)NCCn1c(=O)oc2ccc(C)cc21 | 0.5% | -1.0
CC1=C(C(=O)Nc2cc(Cl)ccc2C)C(c2sccc2C)n2ncnc2N1 (stereo not drawn) | -1.6% | 1.4
Cc1nnc(SCC(=O)NCc2ccccc2Cl)c2nn(-c3ccccc3)c(C)c12 | 3.0% | 2.6
CCOC(=O)c1scc(-c2ccc(C)cc2)c1S(=O)(=O)Nc1ccc(F)c(F)c1 | -0.2% | 0.6
O=C(CSc1nc2ccsc2c(=O)n1-c1ccc(Cl)cc1)NCc1ccc(Cl)cc1 | -4.4% | 2.3
CCCn1c2ccccc2c2cnn(CC(=O)NCC3CCN(Cc4ccc(C)cc4)CC3)c(=O)c21 | 0.8% | 1.9
Cc1cc(C)cc(NS(=O)(=O)c2ccc(-c3cc(C)no3)s2)c1 | 9.5% | 3.7
O=C1c2cc(S(=O)(=O)N3CCOCC3)ccc2-c2ccc(S(=O)(=O)N3CCOCC3)cc21 | 2.3% | -0.6
COc1ccc(Cn2c(CO)cnc2SCC(=O)Nc2ccc3c(c2)OCCO3)cc1 | -2.7% | 1.3
COc1cccc(CNC(=O)c2cc(-c3ccc(Cl)s3)nc3ccccc23)c1 | 0.7% | 2.0
COc1cc2c(NC3CCN(C)CC3)nc(N3CCCN(C)CC3)nc2cc1OCC1CCNCC1 | -1.1% | -0.4
Cc1ccccc1OCC(=O)Nc1ccccc1C(=O)OCc1cc(=O)n2nc(C3CC3)sc2n1 | 3.0% | -0.7
CCOc1ccc(NC(=O)Cn2c(=O)oc3cc(S(=O)(=O)N4CCCCCC4)ccc32)cc1 | -0.3% | 1.9
O=C(Nc1onc2c1CCCC2)c1ccccc1 | -0.2% | -0.5
COC(=O)c1cccc(-n2c(CCC(=O)O)ccc2-c2ccc(OC)cc2)c1 | 4.0% | -0.2
Cc1ccc(CSc2nc3ccncc3n2Cc2nc(-c3ccccc3C)oc2C)cc1 | ? | -0.1
CCOc1ccc(CNC(=O)CCC(=O)N2CC3CCCN3c3ccccc32)cc1 (stereo not drawn) | 0.7% | 1.1
O=C(Cn1cc(S(=O)(=O)Cc2ccccc2Cl)c2ccccc21)NCc1ccccc1Cl | -1.3% | 2.7
COc1ccccc1CNC(=O)c1c[nH]c2ccc(S(=O)(=O)Nc3cc(C)cc(C)c3)cc2c1=O | 2.8% | 4.3
COc1ccc(-c2nc(SCC(=O)Nc3ccc4c(c3)OCO4)c(-c3ccc(OC)cc3)[nH]2)cc1 | 8.9% | 3.3
Cc1ccc(CN(C(=O)c2ccc([N+](=O)[O-])cc2)c2ccccn2)cc1 | -0.7% | 0.6
COc1ccccc1CNC(=O)C(=O)NCC(c1cccs1)S(=O)(=O)c1cccs1 (stereo not drawn) | 0.0% | -0.3
COc1ccc(N2CC(NC(=O)c3ccc(Br)o3)CC2=O)cc1 (stereo not drawn) | 1.0% | 0.6
COc1ccc(-c2nc(CS(=O)CC(=O)NCc3ccc(F)cc3)c(C)o2)cc1OC (stereo not drawn) | -0.6% | 0.2
CCc1ccc2c(c1)c(=O)c(C(=O)c1ccc(C)cc1)cn2CC(=O)Nc1ccccc1C | 3.8% | 0.1
Clc1ccccc1-c1nnc(-c2ccccc2CNc2ccc(Br)cc2)o1 | -1.4% | -0.2
COc1ccc(S(=O)(=O)N2Cc3ccccc3CC2C(=O)Nc2ccc(C)cc2C)cc1OC (stereo not drawn) | 0.3% | -0.5
O=C(Cc1ccc(F)cc1)N1CCC(c2nc3c(nnn3Cc3ccc(Cl)cc3)c(=O)[nH]2)CC1 | 1.3% | 0.9
CCN(CC)CCSc1nnc2c3cc(F)ccc3n(CC)c2n1 | 0.7% | -0.6
Cc1ccc(-c2nnc3ccc(SCC(=O)c4ccccc4)nn23)cc1 | 1.4% | -0.9
O=C(NCc1ccccc1Cl)c1cnc2sc(N3CCOCC3)nn2c1=O | 4.9% | 0.3
CC(C)OC(=O)c1ccc(NC(=O)CSc2nc(-c3cccs3)cc(C(F)(F)F)n2)cc1 | 4.7% | -0.4
O=C(NCCc1ccccc1)c1ccc(CSc2nc3ccncc3n2Cc2cccc(F)c2)cc1 | 0.8% | 3.3
Cn1cc(S(=O)(=O)c2ccccc2)c(=O)c2cc(F)c(N3CCCCC3)cc21 | -0.1% | -0.6
CCOc1ccc(C(=O)NCC(c2ccco2)S(=O)(=O)c2ccc(C)cc2)cc1 (stereo not drawn) | -0.4% | -0.5
O=C1CCCc2cc(S(=O)(=O)NCC3CCC(C(=O)Nc4ccc(Cl)cc4)CC3)ccc2N1 (stereo not drawn) | 1.8% | -1.0
O=C(Nc1ccc(F)cc1)c1ccc(Cn2nc(N3CCN(c4ccccc4)CC3)ccc2=O)o1 | 0.4% | 1.6
COc1cccc(-c2nc(SCc3cc(=O)c4ccc(C)c(C)c4[nH]3)n[nH]2)c1 | -1.3% | 5.2
Cc1ccccc1OCC(=O)Nc1cc(-c2cccc(Br)c2)nn1-c1ccccc1 | 2.8% | 0.1
N#Cc1ccccc1NC(=O)C(=O)NCCc1csc(-c2ccc(F)cc2)n1 | 6.3% | 2.2
CCOc1ccc(-c2cc3nc(C4CCN(C(=O)OC(C)(C)C)CC4)c(C(=O)Nc4ccc(C)c(F)c4)cn3n2)cc1 | 12.7% | -0.3
CCCCC(=O)N1CCc2cc(OC)c(OC)cc2C1COc1ccc(C(=O)OCC)cc1 (stereo not drawn) | -2.5% | 1.8
N#Cc1nc(-c2ccc(COc3ccc(Cl)cc3)o2)oc1N1CCCCC1 | 0.2% | -0.2
O=C(Nc1cnc(N2CCN(c3ccccc3)CC2)c(C(=O)O)c1)c1cccs1 | 1.3% | -1.2
CCC(=O)N1CCc2cc(CNS(=O)(=O)c3ccc(Cl)s3)ccc21 | 0.8% | 1.1
COc1ccc(-c2nc3n(n2)C(c2ccccc2)C(C(=O)Nc2cccnc2)=C(C)N3)cc1 (stereo not drawn) | 0.1% | -0.4
Cc1ccc2oc(C(=O)Nc3ccc(S(=O)(=O)N(C)c4ccccc4)cc3)cc(=O)c2c1 | 1.7% | 0.4
Cc1cc(C)n2c(Nc3ccc(Cl)cc3)c(-c3ccsc3)nc2n1 | -0.4% | -0.5
CCCCNC(=O)CN1C(=O)CSc2ccc(S(=O)(=O)N3CCC(C)CC3)cc21 | -0.5% | -0.3
CCN1CCN(CCCNC(=O)Cn2c(-c3cccs3)cc3cc(Cl)ccc32)CC1 | -0.6% | -0.1
COc1ccc(NC(=O)C2CCCN(S(=O)(=O)c3cccs3)C2)cc1 (stereo not drawn) | 4.6% | -0.8

# Profiles as entered above. Screens in order: PINK1 modulator, TRPML1 ag
# Cc1ccccc1OCC(=O)Nc1cc(-c2cccc(Br)c2)nn1-c1ccccc1 is entered as 2.8%, 0.1
# O=C1CCCc2cc(S(=O)(=O)NCC3CCC(C(=O)Nc4ccc(Cl)cc4)CC3)ccc2N1 (stereo not drawn) is entered as 1.8%, -1.0

# (further entries)
Molecule | PINK1 modulator | TRPML1 ag
O=C(Nc1ccccc1OCc1cc(=O)n2ccccc2n1)c1cccc(Br)c1 | -5.5% | 0.6
CCOC(=O)c1cc(C)n(CC2CCC(C(=O)Nc3ccc(C(C)=O)cc3)CC2)c1C (stereo not drawn) | -0.5% | 0.7
CC(C)CCn1c(SCc2ccc(F)cc2Cl)nc2ccsc2c1=O | -0.8% | 1.3
CCc1ccc(NC(=O)CCn2cnc3ccccc3c2=O)cc1 | 2.0% | -1.0
O=C(c1cnc(N2CCOCC2)c2ccccc12)N1CCN(c2ccc(F)cc2)CC1 | -0.7% | -0.6
CCOC(=O)Cc1ccc(NC(=O)N(Cc2ccc(CC)cc2)Cc2cn[nH]c2-c2ccc(OC)cc2)cc1 | 0.9% | 2.1
COc1ccc(/C=C\c2onc(C)c2S(=O)(=O)N2CCC(C(=O)Nc3ccc(C)c(F)c3)CC2)cc1 | 1.2% | 0.2
O=C(C[n+]1cccc(Br)c1)c1ccc2ccccc2c1 | 0.1% | -0.1
Cc1ccc(Nc2cc(C)nc3nc(Cc4ccc(Cl)cc4)nn23)cc1 | 23.6% | 1.2
CCCN(CCC)c1nn2c(=O)c(C(=O)NCc3cc(Br)ccc3OC)cnc2s1 | -0.3% | -0.3
Cc1cc(C)cc(NC(=O)CCCc2nc(-c3ccco3)no2)c1 | -1.3% | 2.0
CCc1ccc(NCc2cc3cc4c(cc3n(CC(=O)Nc3ccccc3Cl)c2=O)OCO4)cc1 | 0.5% | 14.1
Cc1nc2nc(SCC(=O)NCCc3ccc(Cl)cc3)nn2c(C)c1Cc1c(F)cccc1Cl | 0.7% | 0.7
COc1ccc(CNC(=O)CN2C(=O)CCn3nc(-c4cn(C)c5ccccc45)cc32)cc1 | 1.0% | 0.1
C[n+]1cc2c3c(ccc2c2ccc4cc5c(cc4c21)OCO5)OCO3 | -1.8% | 4.7&8.2&0.3
COc1ccccc1N1CCN(C(=O)Cn2c(=O)n3nc(-c4cccc(F)c4)nc3c3ccccc32)CC1 | 3.9% | 0.3
O=C(/C=C/c1cn(CC(O)CN2CCc3ccccc32)c2ccccc12)c1ccc(Br)cc1 (stereo not drawn) | 12.7% | 2.1
COc1ccc(-c2noc(CNC(=O)c3ccccc3Br)n2)cc1 | 2.9% | -0.8
O=c1cc(COc2cccc(C(F)(F)F)c2)nc2sc3c(n12)CCCC3 | 1.9% | -0.7
Cc1c(NC(=O)c2ccc(N3CCC(C)CC3)c([N+](=O)[O-])c2)cccc1-c1nc2ccccc2o1 | -2.1% | -0.4

# Molecules from the list above that have a CF3 group:
Molecule | PINK1 modulator | TRPML1 ag
CC(C)OC(=O)c1ccc(NC(=O)CSc2nc(-c3cccs3)cc(C(F)(F)F)n2)cc1 | 4.7% | -0.4
O=c1cc(COc2cccc(C(F)(F)F)c2)nc2sc3c(n12)CCCC3 | 1.9% | -0.7

# More records follow:
Molecule | PINK1 modulator | TRPML1 ag
Cc1ccc(CNC(=O)CCCCCn2c(=O)[nH]c3ccccc3c2=O)cc1 | 0.2% | 0.1
COc1ccc(Cn2c(=O)n(-c3ccc(C)cc3)c(=O)c3c2c2cc(C)ccc2n3C)cc1 | 0.0% | 0.4
CCOC(=O)c1[nH]c(C)c(CCC(=O)NC(C)c2ccccc2)c1C (stereo not drawn) | 1.7% | -1.1
CCOC(=O)C1=C(CN2CCN(c3cc(C)ccc3C)CC2)NC(=O)NC1c1ccc(Cl)cc1 (stereo not drawn) | 12.4% | 0.3
COc1ccc(-c2cc(C(=O)Nc3c(Cl)cccc3Cl)no2)cc1OC | 2.1% | 0.0
COc1ccc(OC)c(NC(=O)C2CCCN(S(=O)(=O)c3ccc4[nH]c(=O)ccc4c3)C2)c1 (stereo not drawn) | 0.5% | -0.2
COc1ccccc1Cc1nc2ccccc2nc1SCC(=O)NCc1ccc(C)cc1 | -2.8% | 0.2
COc1cccc(Cc2nc3ccccc3nc2SCC(=O)Nc2cc(OC)ccc2OC)c1 | 0.9% | 1.3
O=C(Cn1c(=O)n(-c2ccc(F)c(Cl)c2)c(=O)c2sc3ccccc3c21)NC1CCCCC1 | 3.3% | -0.3
CCOc1ccc(S(=O)(=O)c2cc3cccc(OCC)c3oc2=O)cc1 | 1.0% | 0.3
CCOC(=O)c1ccc(NC(=O)c2cc3cc(C)ccc3n2C)cc1 | 9.3% | -0.1
Cc1cc(Cl)ccc1OCC(=O)Nc1cccc(-c2nc3ccccc3o2)c1 | -0.8% | -0.4
Cc1ccc(-c2nc3cccnc3s2)cc1NC(=O)C(C)C | 1.4% | 0.0
CCc1ccc(C2N3CC4(C)CN2CC(c2ccccc2)(C3)C4=O)cc1 (stereo not drawn) | 2.5% | 0.9
CCCCNC(=O)CCCn1c(=O)c2ccccc2n(Cc2cccc(Cl)c2)c1=O | 1.1% | 4.7
COc1ccc(/C=C/c2nc(C#N)c(N3CCC(C)CC3)o2)cc1OC | 1.9% | 1.4
Cc1cc(C)c(Nc2ncnc3c2cnn3C)c(C)c1 | 1.4% | -0.6
CCc1ccc2nc(N3CCN(C(=O)c4ccccc4)CC3)sc2c1 | -1.0% | 0.8
Cc1ccccc1NC(=O)C1CCN(S(=O)(=O)c2ccccc2)CC1 | 1.3% | -0.4

# A portion of the library; the hit share may differ from the screen's.
